Compound activity from PubChem.
Cruzain Triton – qHTS Assay for Promiscuous and Specific Inhibitors of Cruzain (with detergent); Potency, µM, for inactives: max response, negative = inhibition, actives largely listed as inhibitors; purified cruzain, Z-FR-AMC fluorescence, 0.01% Triton; hit rate 0.43% among 200,000; Cruzipain (Trypanosoma cruzi), P25779; AID 1478, 2009;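 note: plate controls were neutral wells for no effect and buffer without enzyme for full effect; nearly all actives have a fitted effect of over 40% in size; top concentration of the series not given in the record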
Target sequence (P25779 123-467 limits assumed): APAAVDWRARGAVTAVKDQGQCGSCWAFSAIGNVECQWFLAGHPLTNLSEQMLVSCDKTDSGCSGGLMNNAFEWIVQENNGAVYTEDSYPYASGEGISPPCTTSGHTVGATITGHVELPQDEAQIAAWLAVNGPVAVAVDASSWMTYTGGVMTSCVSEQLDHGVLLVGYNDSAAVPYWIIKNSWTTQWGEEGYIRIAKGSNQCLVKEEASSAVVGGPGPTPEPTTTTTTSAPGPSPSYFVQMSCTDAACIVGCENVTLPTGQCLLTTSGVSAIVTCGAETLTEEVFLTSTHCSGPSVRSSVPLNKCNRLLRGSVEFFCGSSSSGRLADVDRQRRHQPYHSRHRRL
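Cruzain (1.5 nM) preincubated 15 min at RT with compound in 100 mM sodium acetate pH 5.5, 5 mM DTT, 0.01% Triton X-100. Reaction started with 2 uM Z-FR-AMC; AMC fluorescence (ex 360/em 450 nm) change over 60 s gave rate.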
StopGo reporter – High Throughput Screening for Foot and Mouth Disease Virus Antivirals. human cells with a luciferase reporter of 2A StopGo recoding; control for the full effect not named in the record. Potency, µM (doses to about 57.9 µM), for the others: at the highest dose signal change, negative = less light. hit rate 1.2% among 410,000. AID 1159524, 2015; active = well fitted falling curve with a large enough effect; inconclusive = small, poorly fitted or top-dose-only effect; inactive = no such curve, though single readings can be large or run the other way; tested in HEK293T cells; note: % is set by controls: 0 for no effect and ±100 for the full control effect; nearly all actives have a fitted effect of over 45% in size; luciferase light after 4 h
NS1 function inh – qHTS Assay for Inhibitors of Influenza NS1 Protein Function | Potency, µM (doses to about 46.1 µM), for inactives: at the top dose activity, positive = more growth | S. cerevisiae slowed by influenza A NS1, growth recovery by OD600 | hit rate 0.4% among 270,000; active means well fitted rising curve with a large enough effect; inconclusive means small, poorly fitted or top-dose-only effect; inactive means no such curve, though single readings can be large or run the other way; note: nearly all actives have a fitted effect of over 50% in size
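Growth recovery, yeast-based: influenza A NS1 expressed in S. cerevisiae causes slow growth, and suppressors are detected by OD600. The parent strain without NS1 is used as positive control.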
Cruzain inh noDet – qHTS Assay for Promiscuous and Specific Inhibitors of Cruzain (without detergent); purified cruzain, Z-FR-AMC fluorescence, no detergent; Potency, µM, inactives show max response, negative = inhibition, usual class: inhibitors; hit rate 2.3% among 200,000;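 note: plate controls were enzyme without inhibitor for no effect and buffer without enzyme for full effect; nearly all actives have a fitted effect of over 40% in size; top concentration of the series not given in the record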
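Purified cruzain at 1.5 nM, pre-incubated 15 min with compound at room temperature in 100 mM sodium acetate pH 5.5, 5 mM DTT, 0.00005% Triton X-100. Reaction started with 2 uM Z-FR-AMC; AMC fluorescence increase over 60 s gives rate.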
MARV entry inh – qHTS for inhibitors of binding or entry into cells for Marburg Virus; Potency, µM (highest dose often 37.8 µM), inactives show top-dose activity change, negative = inhibition, actives largely listed as inhibitors; hit rate 1.8% among 300,000; Marburg virus pseudotyped entry inhibition, cell reporter; control for the full effect not named in the record; about a third of the inactives were read at about 46 µM; AID 540276, 2011; active = well fitted inhibition curve with a large enough effect; inconclusive = small, poorly fitted or top-dose-only effect, or effect the other way; inactive = flat fitted curve, though single readings scatter; tested in HEK293 cells; about a fifth of its hits are not listed in these tables; note: % is set by controls: 0 for no effect and ±100 for the full control effect; luciferase read-out
SARS PLpro yeast – qHTS of Yeast-based Assay for SARS-CoV PLP; Potency, µM (titrated, usually from 32.9 µM), for inactives: at the highest dose activity, positive = growth rescue; hit rate 0.19% among 330,000; S. cerevisiae expressing SARS-CoV PLpro, growth rescue; control for the full effect not named in the record; AID 485353, 2010; active means well fitted rising curve with a large enough effect; inconclusive means small, poorly fitted or top-dose-only effect; inactive means no such curve, though single readings can be large or run the other way; note: 0% is about no effect; nearly all actives have a fitted effect of over 55% in size; growth read by luminescence after 48 h
RE007 growth inh – qHTS Assay for Inhibitors of the HIV-1 protein Vpr; AID 651644, 2012; S. pombe RE007 Vpr strain, BacTiter-Glo ATP luminescence, 24 h; control for the full effect not named in the record; hit rate 0.21% among 360,000; Potency, µM (titrated, usually from 92.2 µM), for the others: at the highest dose activity change, negative = less growth; active = well fitted falling curve with a large enough effect; inconclusive = small, poorly fitted or top-dose-only effect; inactive = no such curve, though single readings can be large or run the other way;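 note: % is set by controls: 0 for no effect and ±100 for the full control effect; nearly all actives have a fitted effect of over 50% in size; the assay follows cell death caused by Vpr and the record does not say whether a fall means rescue or toxicity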
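Fission yeast strain RE007, carrying one chromosomally integrated HIV-1 vpr copy, was seeded at OD 0.01 in PMG+AL medium with 23 nL pinned compound. After 24 h at 30 °C and 99% humidity, viability was read by BacTiter-Glo luminescence.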
LASV entry inh – qHTS for Inhibitors of binding or entry into cells for Lassa Virus; Lassa virus pseudotype entry inhibition, cell reporter; control for the full effect not named in the record; Potency, µM (highest dose often 37.9 µM), inactives show top-dose activity change, negative = inhibition, usual class: inhibitors; hit rate 1.2% among 300,000; active means well fitted inhibition curve with a large enough effect; inconclusive means small, poorly fitted or top-dose-only effect, or effect the other way; inactive means flat fitted curve, though single readings scatter; tested in HEK293 cells; note: % is set by controls: 0 for no effect and ±100 for the full control effect; nearly all actives have a fitted effect of over 50% in size; luciferase read-out
An asterisk follows results filed as active; ? = inconclusive; / = not tested or not shown; & = joins results of further samples; [ ] = dose if it differs, or a comment. Unless noted, calls come from the whole dose curve; as a rule, active = well fitted curve in the direction sought with a large enough effect; inconclusive = small, poorly fitted or top-dose-only effect, or another doubt; inactive = no such curve, though single readings can be large; an effect the other way counts as inactive or inconclusive. Potency is the fitted concentration of half-maximal effect.

SMILES	Cruzain Triton	StopGo reporter	NS1 function inh	Cruzain inh noDet	MARV entry inh	SARS PLpro yeast	RE007 growth inh	LASV entry inh
CCOC(=O)N1CCN(C(=O)C2COc3ccccc3O2)CC1 (stereo unspecified)	0.3%	10%	-12%	18%	?	0%	0%	-8%
Cc1cc(C)cc(N(CCC#N)C(=O)CSc2n[nH]c(N)n2)c1	/	-2%	/	/	12%	-1%	9%	14%
Cc1ccc(CNC(=O)CSc2nc(=O)n3cccc(C)c3n2)cc1	/	-1%	/	/	14%	/	-8%	1%
CCc1ccc(OCC(=O)Nc2ccc3c(c2)COC3=O)cc1	-3.8%	-11%	-16%	0%	7%	-6%	-25%	5%
Cc1ccc(-n2c3c(cc(C(=O)NCc4ccco4)c2=O)C(=O)CC(C)(C)C3)cc1	-5.1%	-19%	1.1µM*	?	-23%	-4%	0%	11%
Cc1cccc(C(=O)NCC(c2ccc3c(c2)OCO3)N2CCOCC2)c1 (stereo unspecified)	-0.2%	-11%	/	-6%	/	/	/	-1%[46.1 µM]
COc1cc2c(cc1C1NC(=S)NC(C)=C1C(=O)N(C)C)CCCC2 (stereo unspecified)	-1.1%	-14%	16%	-4%	3%	17%	2%	17%
CCCN1CCN(C(=O)Cn2ncc3c4ccccc4n(Cc4cccc(Cl)c4)c3c2=O)CC1	-5.9%	-12%	/	2%	-3%[46.1 µM]	/	/	13%[46.1 µM]
Oc1ccc(N=C/C=C/c2cccc(Br)c2)cc1-c1nc2ccccc2s1	-5.7%	2%	1%	20µM*	?	-10%	-20%	?
C=CCC1NS(=O)(=O)OCC1NC(=O)OCC(Cl)(Cl)Cl (stereo unspecified)	/	3%	18%	/	/	5%	6%	/
CC1(C)CC2CC(C)(CN2C(=O)COc2cccc3ccccc23)C1 (stereo unspecified)	-2.9%	0%	10%	15%	?	1%	1%	-11%
CS(=O)(=O)c1nc(S(=O)(=O)c2ccc(Cl)cc2)c(N2CCC(C(N)=O)CC2)s1	/	-1%	-4%	/	/	-1%	-4%	/
Cn1cccc1C(C(=O)NC1CCCCC1)N(C(=O)Cc1cccs1)c1ccc2c(c1)OCO2 (stereo unspecified)	4.9%	/	-3%	?	-12%	6%	-7%	-9%
Cc1ccc2ccccc2c1COC(=O)c1nonc1N	-16%	4%	-98%	-7%	7%	-10%	14%	-6%
Cc1nn(-c2ccc(N3CCOCC3)nn2)c(C)c1CCC(=O)NCc1ccc(F)cc1	0.2%	-15%&-7%	4%	12%	/	2%	-8%	-1%[46.1 µM]
COc1ccc([N+](=O)[O-])cc1NC(=O)C1CCCO1 (stereo unspecified)	-0.7%	-18%	-1%	2%	-17%	-1%	13%	3%
O=C1C(=O)N(CCN2CCOCC2)C(c2ccc(F)cc2)/C1=C(/O)c1ccc(S(=O)(=O)N2CCOCC2)cc1 (stereo unspecified)	/	9%	20%	/	-5%[46.1 µM]	9%	0%	2%
O=C(NCCc1ccc(Cl)cc1)c1ccc2c(c1)N(Cc1ccc(F)cc1Cl)C(=O)CS2	-4.2%	-24%	/	-74%	-28%[46.1 µM]	/	/	?
COc1cc(-c2nnc(SCc3c(F)cccc3Cl)o2)cc(OC)c1OC	-6.2%	-11%	-31%	?	-20%	-15%	-12%	?
Cc1cc(NC(=O)c2cccnc2)ccc1NC(=O)c1ccco1	-0.3%	19%	-17%	-7%	15%	-4%	-6%	12%
O=C(Nc1ccc(F)cc1)c1ccccc1NC(=O)C1CC=CCC1C(=O)O (stereo unspecified)	/	3%	22%	/	?	-1%	0%	11%[46.1 µM]
Cn1cc(S(=O)(=O)N2CCCCCC2)cc1C(=O)Nc1ccc(Cl)c(C(F)(F)F)c1	-0.2%	-27%	/	-6%	/	/	/	-5%[46.1 µM]
C=CCNC(=S)Nc1ccc(C(N)=O)cc1	/	-3%	7%	/	18%[46.1 µM]	7%	-17%	2%
Cc1ccc(C)c(OCCC(=O)NNC(=O)c2ccccc2)c1	/	-16%	/	/	-9%[46.1 µM]	5%	3%	2%
CCc1ccccc1NC(=O)CCC(=O)N1CC(C)Oc2ccc(C)cc21 (stereo unspecified)	-2.6%	-15%	/	3%	-4%[46.1 µM]	/	/	26%[46.1 µM]
CC1CCCCN1S(=O)(=O)c1ccc(S(=O)(=O)N2CCN(c3ccccc3)CC2)cc1 (stereo unspecified)	8.2%	-13%	6%	?	?	16%	1%	-30%
O=C(CN1C(=O)CN=C(c2ccccc2)c2ccccc21)NCc1ccco1	-4.9%	21%	-4%	14%	-12%[46.1 µM]	1%	12%	9%
CN1CCN(C(=O)COc2ccc(S(=O)(=O)NCc3ccccc3)cc2Cl)CC1	-0.8%	/	3%	-1%	-3%	-4%	-3%	-1%
O=C(Cn1ccc(C(F)(F)F)n1)N/N=C/c1cccs1	-2.1%	-26%	7%	12%	7%	13%	-2%	11%
O=C(c1cc2ccccc2o1)N1CCN(c2ncccn2)CC1	/	-3%	/	/	-4%[46.1 µM]	-6%	-20%	0%[46.1 µM]
C[C@]12C(=O)N(c3ccc(Cl)cc3)C(=O)N1[C@H]1c3ccccc3OC[C@@H]1[C@H]2c1ccccc1	/	-20%	18%	/	/	-1%	-21%	/
C=CCNC(=O)c1c(-c2c(F)cccc2Cl)noc1C	7.5%	-12%	4%	-2%	25%	7%	9%	0%
CC(C)CC(=O)NC(=S)Nc1ccccc1N1CCCC1	/	-17%	7%	/	/	1%	-10%	/
O=C(C1CCN(c2nnc(-n3cccc3)s2)CC1)N1CCOCC1	-2.0%	0%	2%	?	/	-3%	3%	/
CC1N(C)c2cc(NC(=O)c3ccco3)ccc2C1(C)C (stereo unspecified)	0.0%	23%	-85%	-1%	?	-11%	-16%	?
COc1ccc(OCC(O)Cn2c(N)nc3c2c(=O)[nH]c(=O)n3C)cc1 (stereo unspecified)	/	17%	-4%	/	17%[46.1 µM]	0%	6%	7%
Cc1cccc(-n2c(-c3ccco3)nc3c(cnn3-c3ccccc3C)c2=O)c1	-5.2%	0%	/	-5%	?	/	/	-15%[46.1 µM]
CCOC(=O)CN(C(=O)c1snc(C(N)=O)c1N)C(C(=O)NCCC(C)C)c1ccc(F)cc1 (stereo unspecified)	/	9%	5%	/	/	3%	7%	/
CN(C)CCn1c2c(c(SCC(=O)Nc3ccc4c(c3)OCCO4)nc1=O)CCCC2	/	-12%	/	/	-28%	1%	-5%	-26%
Cc1ccc(CC(=O)N2CCN(S(=O)(=O)c3ccccc3)CC2)cc1C	/	-19%	/	/	5%	2%	9%	-23%
CCn1c(C)c(C)c2cc(C(=O)NCCc3ccco3)ccc21	/	32%[activator]	-8%	/	/	-29%	-7%	/
CC(NC(=O)c1cc2cc(Cl)ccc2oc1=N)c1ccccc1 (stereo unspecified)	/	?	11%	/	/	1%	-9%	/
CC(C)(C)NC(=O)C(=O)NNC(=O)COc1ccc(Br)cc1	-0.1%	8%	3%	0%	4%	3%	/	4%
O=C(O)COc1ccc2c3c(c(=O)oc2c1)CCC3	-9.5%	-3%	8%	-4%	17%	1%	1%	8%
COc1ccc(NC(=S)c2ccc3ccccc3n2)cc1	/	67%[activator]	-3%	/	/	-8%	-5%	/
Cc1cc(C)c(OCC(=O)OC(C)C(=O)NCc2ccccc2)c(C)c1 (stereo unspecified)	/	-14%	/	/	24%	2%	30%	16%
CCOC(=O)N/N=C(\C)c1ccc(C)c([N+](=O)[O-])c1	-5.1%	-1%	?	6%	?	6%	-21%	22%
Cc1[nH]n(-c2ccc(Cl)c(Cl)c2)c(=O)c1CCO	/	-3%	4%	/	?	0%	27%	-16%

Ordered by heavy-atom count (highest first): part of the list above.
SMILES	Cruzain Triton	StopGo reporter	NS1 function inh	Cruzain inh noDet	MARV entry inh	SARS PLpro yeast	RE007 growth inh	LASV entry inh
CCCN1CCN(C(=O)Cn2ncc3c4ccccc4n(Cc4cccc(Cl)c4)c3c2=O)CC1	-5.9%	-12%	/	2%	-3%[46.1 µM]	/	/	13%[46.1 µM]
C[C@]12C(=O)N(c3ccc(Cl)cc3)C(=O)N1[C@H]1c3ccccc3OC[C@@H]1[C@H]2c1ccccc1	/	-20%	18%	/	/	-1%	-21%	/
CC1CCCCN1S(=O)(=O)c1ccc(S(=O)(=O)N2CCN(c3ccccc3)CC2)cc1 (stereo unspecified)	8.2%	-13%	6%	?	?	16%	1%	-30%
CS(=O)(=O)c1nc(S(=O)(=O)c2ccc(Cl)cc2)c(N2CCC(C(N)=O)CC2)s1	/	-1%	-4%	/	/	-1%	-4%	/
Oc1ccc(N=C/C=C/c2cccc(Br)c2)cc1-c1nc2ccccc2s1	-5.7%	2%	1%	20µM*	?	-10%	-20%	?
Cc1ccc(CNC(=O)CSc2nc(=O)n3cccc(C)c3n2)cc1	/	-1%	/	/	14%	/	-8%	1%
Cc1ccc(C)c(OCCC(=O)NNC(=O)c2ccccc2)c1	/	-16%	/	/	-9%[46.1 µM]	5%	3%	2%
CC(C)(C)NC(=O)C(=O)NNC(=O)COc1ccc(Br)cc1	-0.1%	8%	3%	0%	4%	3%	/	4%
CC1N(C)c2cc(NC(=O)c3ccco3)ccc2C1(C)C (stereo unspecified)	0.0%	23%	-85%	-1%	?	-11%	-16%	?
O=C(Cn1ccc(C(F)(F)F)n1)N/N=C/c1cccs1	-2.1%	-26%	7%	12%	7%	13%	-2%	11%
O=C(O)COc1ccc2c3c(c(=O)oc2c1)CCC3	-9.5%	-3%	8%	-4%	17%	1%	1%	8%
